Assay outcomes deposited in PubChem BioAssay by several laboratories.
RecA intein inh: Mtb RecA intein splicing inhibitors, primary screen, biochemical, fluorescence, HTS | 290,000 compounds, 0.75% hits | AID 2221, 2009 | cell-free RecA intein splicing | Protein RecA (Mycobacterium tuberculosis (strain ATCC 25618 / H37Rv)), P9WHJ3 | inhibition, %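 (about 9 µM by stock and volumes)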; in the data active = inhibition above about 30%;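 also: 0% = vehicle wells and 100% = reference inhibitor control wells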
Target sequence (P9WHJ3 whole entry, looked up): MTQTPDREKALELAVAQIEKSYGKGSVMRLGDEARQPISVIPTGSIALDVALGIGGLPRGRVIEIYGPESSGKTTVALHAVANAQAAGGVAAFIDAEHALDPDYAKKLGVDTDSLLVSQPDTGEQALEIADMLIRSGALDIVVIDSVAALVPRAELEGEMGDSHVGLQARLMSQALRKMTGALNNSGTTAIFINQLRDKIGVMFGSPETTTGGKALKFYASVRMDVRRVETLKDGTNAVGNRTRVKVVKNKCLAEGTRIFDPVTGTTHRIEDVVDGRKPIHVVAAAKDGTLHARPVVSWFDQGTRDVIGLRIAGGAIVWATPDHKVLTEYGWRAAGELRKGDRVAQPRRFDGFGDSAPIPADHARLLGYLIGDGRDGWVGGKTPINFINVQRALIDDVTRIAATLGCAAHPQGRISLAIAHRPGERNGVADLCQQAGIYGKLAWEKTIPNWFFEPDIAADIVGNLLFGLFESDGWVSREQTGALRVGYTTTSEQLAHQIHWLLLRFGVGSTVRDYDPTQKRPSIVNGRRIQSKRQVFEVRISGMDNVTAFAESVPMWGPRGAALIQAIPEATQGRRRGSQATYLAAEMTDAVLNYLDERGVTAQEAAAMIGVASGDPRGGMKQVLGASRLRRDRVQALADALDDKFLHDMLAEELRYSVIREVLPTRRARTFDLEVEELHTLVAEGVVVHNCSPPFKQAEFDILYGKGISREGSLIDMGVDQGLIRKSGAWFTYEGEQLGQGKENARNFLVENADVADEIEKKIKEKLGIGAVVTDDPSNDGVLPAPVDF
Arbovirus inh: antivirals against arbovirus infection, primary screen, cell-based, full library, 10K replicate subset | arbovirus infection cell-based antiviral screen | inhibition, % at 10 µM | 200,000 compounds, 0.37% hits;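 active = inhibition from about 30%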;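 also: bluetongue infection of BSR cells; cell survival read as ATP light after 72 h; 0% = infected wells without compound and 100% = uninfected wells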
Mtb H37Rv: M. tuberculosis H37Rv growth inhibitors, H37Rv strain (AID 1626); M. tuberculosis H37Rv growth inhibition; higher % means a stronger effect; 220,000 compounds, 0.95% hits; inhibition, % at 10 µM; hits with a dose series show IC50 in µM;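 active = confirmed in a dose series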;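 also: bacteria incubated seven days before Alamar blue readout; 0% = bacteria only wells and 100% = bacteria with antibiotic wells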
YopH inh: YopH tyrosine phosphatase inhibitors, primary screen, biochemical, fluorescence Ex485/Em525; inhibition, %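 (about 10 µM by stock and volumes)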; 140,000 compounds, 0.16% hits; AID 898, 2007;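 active = inhibition of 50% or more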;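 also: controls were vehicle for no effect and minimum signal wells for full effect; inactives centre near -20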
Mtb betalactam: beta-lactam sensitization of Mtb H37Rv, H37Rv | M. tuberculosis H37Rv growth with meropenem, percent inhibition; hits of this screen are not shown here | 330,000 compounds, 0.27% hits | inhibition, % at 25 µM;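 active = about 74% or more and at least 40 points above the plate without the antibiotic, then above 30% in a dose series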;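 also: growth measured after seven days incubation then overnight dye step; 0% = bacteria only wells and 100% = bacteria with antibiotic; twin plates without the antibiotic show which effects depend on it; some results filed as inactive read as strong as hits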
The depositor's hits bear a star; nt = not tested or not shown. A portion of the library, so the mix of outcomes need not match the whole.

Every second line gives: Arbovirus inh, Mtb betalactam, Mtb H37Rv, RecA intein inh, YopH inh
[1] c1ccc2c(c1)NC(CN1CCOCC1)CO2 (centres undefined)
 : -2, -3, 7%, -7.8, -27
[2] CCCOc1ccc(NC(=O)C2CC(=O)N/C(=N/N=C(C)/C=C/c3ccc(N(C)C)cc3)S2)cc1 (centres undefined)
 : -7, 99, 51%, -44, 3
[3] Clc1ccccc1/C=C/c1nc(-c2cccnc2)no1
 : nt, -2, 9%, -2.1, nt
[4] CN(Cc1ccccc1)S(=O)(=O)c1cc2c3c(c1)CCN3C(=O)CC2
 : nt, 3, nt, 3.4, nt
[5] O=C(c1ccc(CS(=O)c2cccc(Cl)c2)o1)N1CCCCCC1 (centres undefined)
 : nt, 2, nt, 0.5, nt
[6] C=CCn1c(COc2ccccc2)nnc1SC(C)C(=O)N/N=C/c1cc(Cl)ccc1O (centres undefined)
 : -35, 13, -2%, 13, -8
[7] C/C(=C\c1ccc(Cl)cc1)C(=O)c1c(C)cc(C)[nH]c1=O
 : nt, -3, nt, 3.9, nt
[8] CCOc1ccc(/C=C/C(=O)NC2CCCCC2)cc1
 : nt, -5, nt, 0.2, nt
[9] Cn1cc(CNC(=O)c2cc(-c3ccc(Br)cc3)nc3ccccc23)cn1
 : -3, -2, -3%, 4.1, nt
[10] CCCn1cnc2cc(NCc3ccccc3O)ccc21
 : nt, 19, nt, -1.1, nt
[11] COc1ccccc1NC(=O)NNC(=O)c1ccc2ccccc2c1O
 : nt, 16, nt, -6.2, nt
[12] CCOC(=O)[C@@H]1[C@H]2COc3ccccc3[C@@H]2N2C(=O)N(c3ccc(F)cc3)C(=O)[C@]12C
 : nt, -19, -14%, 0.0, nt
[13] COc1cc(NS(=O)(=O)c2ccc(NC(=O)c3ccc(S(=O)(=O)N4CCCCC4)cc3)cc2)ncn1
 : 0, -6, -6%, 3.3, nt
[14] CC(C(=O)c1ccccc1)n1c(N2CCOCC2)nc2c1c(=O)n(C)c(=O)n2C (centres undefined)
 : -2, 6, -3%, -2.9, -42
[15] CC1CCC(C(C)C)C(OC(=O)Cn2c(-c3ccc(F)cc3)[n+](C)c3ccccc32)C1 (centres undefined)
 : -45, 100, 7µM*, nt, -10
[16] CC1=C(C(N)=O)C(c2ccc3c(c2)OCO3)n2nc(-c3cccc(C)c3)nc2N1 (centres undefined)
 : 6, -5, 0%, 3.6, -39
[17] CCOC(=O)CSc1nnc([C@H](Cc2ccccc2)NC(=O)OC(C)(C)C)o1
 : 4, 99, 15%, nt, -28
[18] CCCc1nnc(NC(=O)CCC(=O)N2CCC(C)CC2)s1
 : nt, 0, nt, -2.2, nt
[19] Cn1ccnc1SCC(=O)Nc1cccc(S(=O)(=O)N2CCCCC2)c1
 : 2, 1, 2%, nt, nt
[20] COc1ccc(-n2c(=O)c3ccccc3n(CC(=O)c3ccccc3)c2=O)cc1OC
 : 9, -5, -4%, -1.3, nt

Molecules shown so far that contain a Cl atom (four):
Every second line gives: Arbovirus inh, Mtb betalactam, Mtb H37Rv, RecA intein inh, YopH inh
[3] Clc1ccccc1/C=C/c1nc(-c2cccnc2)no1
 : nt, -2, 9%, -2.1, nt
[5] O=C(c1ccc(CS(=O)c2cccc(Cl)c2)o1)N1CCCCCC1 (centres undefined)
 : nt, 2, nt, 0.5, nt
[6] C=CCn1c(COc2ccccc2)nnc1SC(C)C(=O)N/N=C/c1cc(Cl)ccc1O (centres undefined)
 : -35, 13, -2%, 13, -8
[7] C/C(=C\c1ccc(Cl)cc1)C(=O)c1c(C)cc(C)[nH]c1=O
 : nt, -3, nt, 3.9, nt

Further compounds
Every second line gives: Arbovirus inh, Mtb betalactam, Mtb H37Rv, RecA intein inh, YopH inh
[21] Cc1ccc2c(CC(=O)N3CCOCC3)coc2c1
 : 2, -2, 4%, -1.8, nt
[22] COc1cc(OC)cc(C(C)=O)c1
 : -2, 6, 3%, -0.7, -14
[23] O=C(Nc1cccc2ccccc12)NC1CCCCC1O (centres undefined)
 : nt, -2, nt, -0.2, nt
[24] Nc1cnccc1C(=O)O
 : 1, 36, 30%, -12, nt
[25] CCN(CC)Cc1c(C(=O)N/N=C/c2cccc3ccccc23)nnn1-c1nonc1N
 : nt, 3, nt, -6.3, nt
[26] CCCN(Cc1cc2cccc(C)c2[nH]c1=O)S(C)(=O)=O
 : -1, -9, nt, 1.0, -9
[27] COc1ccc(OC)c(C(=O)c2c(C)oc3cc([N+](=O)[O-])c(O)c([N+](=O)[O-])c23)c1
 : nt, 1, -3%, 10, nt
[28] O=C(Nc1nnc(C(F)(F)F)s1)c1ccc(N2C(=O)C3C4C=CC(C4)C3C2=O)cc1 (centres undefined)
 : 18, 9, -5%, 0.3, 98*
[29] COC(=O)c1cc(NC(=O)CN(C)Cc2ccccc2)cc(C(=O)OC)c1
 : nt, -1, -8%, 1.7, nt
[30] COc1ccc(OC)c(S(=O)(=O)N2CCC(C(=O)Nc3cccc(C)c3)CC2)c1
 : -5, -6, -3%, 0.1, 5
[31] C/C(=N\OC(=O)c1ccccc1)c1c(C)nc2cc(C)ccn12
 : 5, -2, -1%, nt, nt
[32] CCOc1ccc(NC2=NC(C)(C)N=C(N)N2)cc1
 : 5, -14, -1%, -0.6, -35
[33] CC1=CCC(C(=O)N/N=C/c2cccs2)C(c2ccc(F)cc2)C1 (centres undefined)
 : -11, -4, 1%, 7.1, 7
[34] CCC(=O)c1cc2c(cc1NC(=O)C(C)C)OCCO2
 : -6, 3, 6%, -2.0, -43
[35] COc1ccc(C(CNC(=O)c2cccnc2SC)N2CCOCC2)cc1 (centres undefined)
 : -2, -8, -3%, -0.3, -29
[36] Clc1ccc(-c2cn3cc(Cl)ccc3n2)cc1
 : nt, 5, nt, 3.9, nt
[37] O=C(Nc1ccc(Br)cc1Cl)c1ccc2c(=O)n3c(nc2c1)CCC3
 : nt, -13, nt, 9.0, nt
[38] O=c1cc(-c2ccc(Br)cc2)[nH][nH]1
 : 4, 4, 6%, 97*, nt
[39] O=C(O)c1cc(NN=Nc2ccc(Br)cc2)cc([N+](=O)[O-])c1
 : nt, 19, 11%, 3.5, nt
[40] CCn1c(C(O)c2ccc3c(c2)OCO3)nc2ccccc21 (centres undefined)
 : 1, -8, 6%, 1.1, -36
[41] CC(=O)c1cccc(NC(=O)Cc2cccs2)c1
 : -5, 0, -9%, 3.8, -13
[42] CC(=O)Nc1ccc(S(=O)(=O)NC(=O)C23CC4CC(CC(C4)C2)C3)cc1
 : 11, -4, 1%, 0.4, -36
[43] Cc1nn(C)c(NC(=O)c2ccc(Cl)cc2)c1Cl
 : nt, 2, nt, 0.7, nt
[44] COc1ccc(CC(=O)NNC(=O)c2ccc(SCc3cc(F)ccc3F)c([N+](=O)[O-])c2)cc1
 : -5, 0, 1%, 0.7, -42
[45] O=C(NCc1ccncc1)C1COc2ccccc2O1 (centres undefined)
 : 6, -4, 4%, -0.2, -7
[46] Cc1[nH]c(-c2ccc(F)cc2)cc1C(=O)N1CCN(c2ccc(Cl)cc2)CC1
 : nt, 98, nt, -3.8, nt
[47] CCOC(=O)/C=C/C(=O)Nc1ccc(S(=O)(=O)Nc2c(C)cc(C)cc2C)cc1
 : -22, 0, 4%, 0.4, -31
[48] O=C(N/N=C/c1cccs1)c1cc(C2CC2)nc2ccccc12
 : -12, 2, 0%, -1.1, 2
[49] CCS(=O)(=O)N1CCN(c2ccccc2)CC1
 : nt, -9, 0%, 1.3, nt
[50] O=C(COC(=O)CNC(=O)c1ccc(Cl)cc1Cl)NC1CCCCCCC1
 : nt, -3, nt, 2.4, nt
[51] CC[C@H](C)Cc1cn([C@@H](CCCN=C(N)N)C(=O)NCCCCCCCCCCC(=O)N2CCNCC2)nn1
 : nt, 76, nt, -0.9, nt
[52] CC1CCCN(C(=O)COC(=O)Cc2ccc(Cl)cc2)C1 (centres undefined)
 : nt, -3, nt, -0.3, nt
[53] COc1ccc(OC)c(S(=O)(=O)N2CCN(c3ccccn3)CC2)c1
 : -4, -7, -10%, 2.3, -20
[54] Cc1nc2ncccn2c1-c1csc(Nc2cccc(C(=O)O)c2)n1
 : nt, -5, nt, -1.8, nt
[55] CCOC(=O)N1CCN(C(=S)NC(=O)c2ccc(F)cc2)CC1
 : 5, 2, -3%, nt, nt
[56] CCS(=O)(=O)N1Cc2ccccc2CC1C(=O)OCC(=O)Nc1ccc(C)cc1 (centres undefined)
 : 3, -8, 5%, 3.7, -44
[57] CCC(C(=O)NCCCN1CCOCC1)n1c2ccccc2c2nc(=O)cc(C)n21 (centres undefined)
 : nt, 2, nt, -2.9, nt
[58] CN(C)S(=O)(=O)c1ccc(C(=O)Nc2ccccc2F)cc1
 : 6, -7, -3%, -0.7, -57
[59] Clc1ncc(CSc2ccccc2)s1
 : -4, -9, 1%, 0.7, nt
[60] CCOC(=O)N1CCN(C(=O)CSc2nc(-c3cccc(C)c3)ns2)CC1
 : 9, 100, 0.73µM*, 0.5, -26

2 of the compounds above, with tabs.
No.	SMILES	Arbovirus inh	Mtb betalactam	Mtb H37Rv	RecA intein inh	YopH inh
12	CCOC(=O)[C@@H]1[C@H]2COc3ccccc3[C@@H]2N2C(=O)N(c3ccc(F)cc3)C(=O)[C@]12C	nt	-19	-14%	0.0	nt
13	COc1cc(NS(=O)(=O)c2ccc(NC(=O)c3ccc(S(=O)(=O)N4CCCCC4)cc3)cc2)ncn1	0	-6	-6%	3.3	nt

Following part.
Every second line gives: Arbovirus inh, Mtb betalactam, Mtb H37Rv, RecA intein inh, YopH inh
[61] COc1ccc(CN(C(=O)c2cc3ccccc3oc2=O)C2CCCCC2)cc1OC
 : 103*, 5, -3%, 2.6, -1
[62] COCCNC(=O)CN(C(=O)CCC(=O)Nc1cc(C)on1)c1ccccc1C
 : -3, -4, -8%, -1.2, -12
[63] COc1ccc(OC)c(NC(=O)C(Sc2ccccc2)c2ccccc2)c1 (centres undefined)
 : -5, 11, -1%, -2.2, -10
[64] O=C(CSc1nc2scc(-c3ccccc3)c2c(=O)[nH]1)N1CCCCC1
 : 4, -5, 7%, 0.8, nt
[65] CCN(CC)S(=O)(=O)c1ccc(C(=O)NCc2nnc(SCC(=O)OC)n2C)cc1
 : -3, 1, 1%, nt, -14
[66] S=C(Nc1ccc(Br)cc1Cl)N1CCC2(CC1)OCCO2
 : 4, -4, -2%, -2.4, nt
[67] O=C(NCC(=O)N(Cc1cccs1)C(C(=O)NC1CCCC1)c1ccco1)c1cccs1 (centres undefined)
 : -8, 3, -10%, 2.7, -17
[68] COc1cc(/C=N/NC(=O)c2ccncc2)ccc1OCC(=O)Nc1ccccc1
 : nt, 98, nt, -0.6, nt
[69] CNC(=S)N(CCCN(C)C)Cc1cc2cc3c(cc2[nH]c1=O)OCCO3
 : nt, -9, nt, -0.8, nt
[70] O=C(CNC(=O)c1cccs1)N/N=C/c1ccc(O)cc1O
 : -5, 7, 1%, -3.2, nt
[71] Cc1ccccc1OCCCC(=O)Nc1ccc(S(=O)(=O)Nc2onc(C)c2C)cc1
 : nt, 2, nt, 6.3, nt
[72] Cn1nc(C(=O)NNC(=O)C2CSC3(C)CCC(=O)N23)c2ccccc2c1=O (centres undefined)
 : nt, 0, nt, 1.3, nt
[73] Cc1ccc(/C=C/C(=O)c2ccc(N3CCOCC3)cc2)s1
 : 3, 2, 6%, nt, nt
[74] Cc1ccc2[nH]c(=O)c(CN(Cc3ccco3)S(=O)(=O)c3c(C)ccc4nsnc34)cc2c1
 : 1, 3, 1%, -0.7, -30
[75] CC(C)c1ccc2[nH]c3nc(SCC(=O)N4CCOCC4)nnc3c2c1
 : -4, 1, 1%, -1.5, nt
[76] Clc1ccccc1CNCC1CCCO1 (centres undefined)
 : nt, -7, nt, 1.5, nt

Whole records, looked up by structure:
Record of `CN(Cc1ccccc1)S(=O)(=O)c1cc2c3c(c1)CCN3C(=O)CC2` : Arbovirus inh = nt; Mtb betalactam = 3; Mtb H37Rv = nt; RecA intein inh = 3.4; YopH inh = nt
Record of `C/C(=N\OC(=O)c1ccccc1)c1c(C)nc2cc(C)ccn12` : Arbovirus inh = 5; Mtb betalactam = -2; Mtb H37Rv = -1%; RecA intein inh = nt; YopH inh = nt
Record of `Cn1ccnc1SCC(=O)Nc1cccc(S(=O)(=O)N2CCCCC2)c1` : Arbovirus inh = 2; Mtb betalactam = 1; Mtb H37Rv = 2%; RecA intein inh = nt; YopH inh = nt

2 entries from above, reformatted:
16	CC1=C(C(N)=O)C(c2ccc3c(c2)OCO3)n2nc(-c3cccc(C)c3)nc2N1 (centres undefined)
17	CCOC(=O)CSc1nnc([C@H](Cc2ccccc2)NC(=O)OC(C)(C)C)o1

Compound | 16 | 17
Arbovirus inh | 6 | 4
Mtb betalactam | -5 | 99
Mtb H37Rv | 0% | 15%
RecA intein inh | 3.6 | nt
YopH inh | -39 | -28
